Bioassay records (PubChem BioAssay)
Autofluor counter – counter-screen for toxin protease inhibitors: compound fluorescence; compound autofluorescence counterscreen, microsphere flow cytometry; hits give high values; fluorescence intensity (test concentration not listed); actives 3.1% (n = 360,000);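 active means at least 3 SD above the mean of all compounds, about 16000 in these data; inconclusive means too few beads counted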;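 further: 100 nL of 1 mM stock went into each well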
Mtb hypoxia inh – PubChem AID 1159583; M. tuberculosis hypoxia-regulated fluorescent reporter, fluorescence; fluorescence inhibition, % (concentration not given with the values); actives 0.1% (n = 300,000);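 active means 35 to 45% if threefold the growth effect, above 45% if 1.5-fold the growth effect; inactive means the rest, general growth blockers included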;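 further: wells of about 50 µL received 100 nL stock; 0% = vehicle wells and 100% = reference inhibitor wells; whole bacteria with a GFP reporter of the hypoxia response; strong numbers were not always called active; many hits fall short of the cut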
Sa ugtP lethal – growth inhibition of ugtP-null S. aureus, primary screen, RN4220 ugtP deletion, OD600 | 16 h; some inactives read as strong as hits | growth inhibition, % (test concentration not listed) | actives 0.54% (n = 330,000);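 active means z-score under -3 and OD600 up to 0.15 on both plates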;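 further: plate controls were untreated wells for no effect and antibiotic for full effect; wells of about 80 µL received 100 nL stock; the first replicate is given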
BJeLR lethal – MLPCN primary cell-based screen for lethality selective to Ras in HRASV12 cells; BJeLR (HRASV12) viability, CellTiter-Glo ATP luminescence, 48 h; reference of the scale not given here; inhibition, % (test concentration not listed); actives 0.17% (n = 300,000); AID 1554, 2009;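 active means replicate mean above 50%; inconclusive means above 50% but judged a plate artefact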;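 further: 50 nL library stock added to about 25 µL; numbers are from one replicate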
Sa RN4220 lethal – growth inhibition of S. aureus RN4220, primary screen, OD600; 16 h; inhibition, % (test concentration not listed); actives 0.33% (n = 330,000); AID 1259311, 2017;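 active means z-score of -3 or lower and OD600 up to 0.18 on both plates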;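 further: plate controls were untreated cells for no effect and reference antibiotic for full effect; stock transfer was 100 nL into about 80 µL; one replicate is shown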
PrP UTR inh – inhibition of PrP 5' UTR reporter expression; inhibition, % (concentration not given with the values); actives 0.35% (n = 340,000); cell-based PrP 5' UTR mRNA reporter, plate reader;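 active means every replicate at 50% or more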;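 further: 0 = median of the neutral control wells; tested in H4 reporter cells; numbers are from one replicate; inactives centre near -14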
Mtb hypoxia inh growth – further read-out of Mtb hypoxia inh, marked with its call; growth inhibition, %; measured here: M. tuberculosis growth (absorbance);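 0% = vehicle and 100% = reference antibiotic; read after six days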
* marks the source's active call; other numbers are inactive results; ? = inconclusive; / = not tested or not shown. Compounds were not picked by outcome. Share with any hit: about 4%.

SMILES	Autofluor counter	Mtb hypoxia inh	Mtb hypoxia inh growth	Sa ugtP lethal	BJeLR lethal	Sa RN4220 lethal	PrP UTR inh
O=C(COc1ccc2c3c(c(=O)oc2c1)CCC3)N[C@@H](CSCc1ccccc1)C(=O)O	4920	/	/	0	-1	5.2	-16
CCOCCOc1cccc(C(=O)NC(C)c2ccc3ccccc3c2)c1 (configuration not stated)	3457	-4	-3	-2	-1	-1.7	-17
Cn1c(=O)n(Cc2ccccc2F)c2ccccc21	9811	7	14	-4	13	2.3	-18
O=c1c2cc(NC(=S)NCCCN3CCC(Cc4ccccc4)CC3)ccc2nc2n1CCCCC2	4628	0	6	13	10	2.3	-11
CC(C)C[C@H]1COCCS(=O)(=O)N1Cc1cccc(C(F)(F)F)c1	3714	/	/	/	-2	/	-10
Cc1cc(C)c(S(=O)(=O)N(C)CC(=O)NCCN2CCOCC2)c(C)c1	5252	16	10	2	-2	4.4	-32
COc1ccc2c(c1)CCC1C2=NN(/C(C)=C/C(C)=O)C1c1cccc(F)c1 (configuration not stated)	62503*	10	6	-55	-4	3.0	-34
S=c1[nH]nc(CCc2nc3ccccc3[nH]2)n1-c1cccc(Cl)c1	4704	0	-3	2	-5	0.5	-16
CCOC(=O)[C@@]12C(=O)C(=O)N[C@]1(c1ccccc1)C1OCCCC12 (some centres not stated)	2607	5	1	1	-11	5.1	-27
CC(C)(C)c1nc2c(s1)CCc1onc(-c3ccc(Cl)cc3)c1-2	4269	14	1	29	10	-8.6	-5
COC(=O)Oc1ccc(C=NNC(=O)CSCc2ccccc2Br)cc1OC	/	2	1	0	/	-3.9	/
N#CCCN(Cc1ccccc1)C(=S)Nc1ccc(F)cc1	/	-3	-3	2	5	2.3	-15
COc1cc(/C=C/C(=O)OCC(=O)Nc2cc(C(F)(F)F)ccc2N2CCOCC2)ccc1O	2489	11	3	-2	1	3.1	-14
CC(C)(C)c1ccccc1NC(=O)c1c(O)c2cccc3c2n(c1=O)CC3	/	15	7	4	1	-7.0	/
CCN(CC)S(=O)(=O)c1cccc(C(=O)Nc2nc3cc4c(cc3s2)OCCO4)c1	13381	7	-8	7	-1	20	-35
O=C1CCN(Cc2ccc([N+](=O)[O-])cc2)CCN1C(CO)c1ccccc1 (configuration not stated)	/	-6	-11	2	/	4.4	/
Cc1c(C(=O)NC(Cc2ccccc2)c2nc3ccccc3[nH]2)cccc1[N+](=O)[O-] (configuration not stated)	2067	3	-2	8	10	32	-3
CC(C)[C@H](NC(=O)N1CCn2c1nc1ccccc12)C(=O)NCc1ccc2c(c1)OCO2	5196	2	7	0	-3	1.7	-8
Cc1c(-c2cccc(NC(=O)c3ccco3)c2)nc2ncccn12	3853	10	3	9	4	8.8	-32
O=C(NC(=S)Nc1ccccc1Cl)c1ccco1	6598	-6	-2	-1	6	5.3	-53

Reprinted from the part before: 4 compounds; new compounds follow.
SMILES	Autofluor counter	Mtb hypoxia inh	Mtb hypoxia inh growth	Sa ugtP lethal	BJeLR lethal	Sa RN4220 lethal	PrP UTR inh
Cc1c(C(=O)NC(Cc2ccccc2)c2nc3ccccc3[nH]2)cccc1[N+](=O)[O-] (configuration not stated)	2067	3	-2	8	10	32	-3
CC(C)[C@H](NC(=O)N1CCn2c1nc1ccccc12)C(=O)NCc1ccc2c(c1)OCO2	5196	2	7	0	-3	1.7	-8
Cc1c(-c2cccc(NC(=O)c3ccco3)c2)nc2ncccn12	3853	10	3	9	4	8.8	-32
O=C(NC(=S)Nc1ccccc1Cl)c1ccco1	6598	-6	-2	-1	6	5.3	-53
Cn1nnnc1SCC(=O)NC(=O)NCc1ccccc1	4106	/	/	-1	3	1.5	-4
O=C(NCc1ccco1)c1noc2c1CCCCC2	16534*	/	/	1	-22	2.1	-47
CCOC(=O)N1CCC(NC(=O)c2csc3c2CCCC3)CC1	4673	11	6	-2	-3	-7.9	-9
CN(CCC#N)C(=O)COC(=O)c1cccnc1Nc1ccccc1F	2291	1	-4	7	0	0.8	-16
CCOc1ccc(NC(=O)C2C3C=CC4(O3)C2C(=O)N(Cc2cccnc2)C4C(=O)NC2CCCCC2)cc1 (configuration not stated)	3622	6	-1	3	-6	0.9	-11
CN(C)/C=C/C(=O)c1ccc(Cl)cc1Cl	2785	6	5	2	2	2.4	-21
CCN(CC)c1ccc2cc(C(=O)NNC(=O)c3ccc(S(=O)(=O)N4CCCCC4)cc3)c(=O)oc2c1	2078	4	1	7	-6	0.5	-15
COc1cc(O)c(C(CC(=O)N2CCN(c3ccccc3)CC2)c2ccc(N(C)C)cc2)c(OC)c1 (configuration not stated)	2683	-5	2	-2	1	6.0	-9
Cn1c(N)c(C(=O)COC(=O)c2ccnc3ccccc23)c(=O)n(C)c1=O	3040	7	10	4	6	3.7	-1
O=C(CSc1nncs1)NC1CCCCCCC1	3462	12	9	5	/	1.8	1
COC(=O)c1sccc1NS(=O)(=O)c1ccc(F)cc1F	3172	/	/	/	3	/	-3
CC(=O)N1CCN(C(=S)c2ccc(Cl)cc2)CC1	2546	-1	-6	2	0	-6.3	-25
CC(C)c1nc(-c2ccccc2)c(-c2ccccc2)[nH]1	2774	/	/	7	-5	-3.6	-14
Cc1cc(C)cc(Nc2cc(=O)n(C3CCCCC3)c(=O)[nH]2)c1	3968	13	6	22	7	-22	0
CN1C2CCC1/C(=C/c1ccccn1)C(=O)/C2=C\c1ccccn1	7173	18	1	-2	/	3.7	78*
CCOC(=O)c1cc(-c2ccccc2)nc2nc(N(CC)CC)sc12	3270	-2	-7	-5	-7	0.5	-21
O=C1c2ccccc2NC(c2ccco2)N1N=Cc1ccco1 (configuration not stated)	/	4	2	9	/	5.2	/
CS(=O)(=O)Nc1cccc(C2=NN(C(=O)c3ccco3)C(c3cccs3)C2)c1 (configuration not stated)	5199	12	11	1	2	8.1	0
O=C(CCn1c(=O)c2ccccc2n(CC(=O)NCCC2=CCCCC2)c1=O)NCc1ccco1	2404	/	/	-4	/	0.2	-10
CCOc1ccccc1NC(=O)c1ccc(OCC(=O)N2CCOCC2)c(OC)c1	5428	-3	1	2	/	1.7	-11

Ordered by count of non-hydrogen atoms (descending): part of the list above.
SMILES	Autofluor counter	Mtb hypoxia inh	Mtb hypoxia inh growth	Sa ugtP lethal	BJeLR lethal	Sa RN4220 lethal	PrP UTR inh
CCOc1ccc(NC(=O)C2C3C=CC4(O3)C2C(=O)N(Cc2cccnc2)C4C(=O)NC2CCCCC2)cc1 (configuration not stated)	3622	6	-1	3	-6	0.9	-11
CS(=O)(=O)Nc1cccc(C2=NN(C(=O)c3ccco3)C(c3cccs3)C2)c1 (configuration not stated)	5199	12	11	1	2	8.1	0
CN(CCC#N)C(=O)COC(=O)c1cccnc1Nc1ccccc1F	2291	1	-4	7	0	0.8	-16
O=C1c2ccccc2NC(c2ccco2)N1N=Cc1ccco1 (configuration not stated)	/	4	2	9	/	5.2	/
O=C(CSc1nncs1)NC1CCCCCCC1	3462	12	9	5	/	1.8	1

Further compounds:
SMILES	Autofluor counter	Mtb hypoxia inh	Mtb hypoxia inh growth	Sa ugtP lethal	BJeLR lethal	Sa RN4220 lethal	PrP UTR inh
CCOCCOC(=O)C1=C(C)Nc2ccc(C)cc2S1	?	3	-5	9	-11	5.1	-17
CCN(CC)S(=O)(=O)c1ccc(N2CCOCC2)c(NC(=O)Cc2ccc(Cl)cc2)c1	2693	-5	-6	-3	-8	-1.9	-7
COC(=O)[C@]1(C)N[C@H](CN(C)S(=O)(=O)c2ccc(-c3ccccc3)cc2)[C@@H]2C(=O)N(C)C(=O)[C@@H]21	3614	3	7	2	/	3.1	-6
O=C(O)[C@H]1C[C@@H]1[C@H](NP(=O)(c1ccccc1)c1ccccc1)c1ccccc1	2998	/	/	/	-13	/	-1
Cc1ccc(CNC(=O)C2CC(c3cc(C(F)(F)F)cc(C(F)(F)F)c3)=NO2)o1 (configuration not stated)	2976	8	5	-40	-6	7.0	-14
COc1ccccc1NC(=S)NN1CCN(C)CC1	2508	5	2	-1	4	3.4	-9
CCc1ccccc1NC(=O)CC(c1ccc(OC)cc1)n1cccc1 (configuration not stated)	9787	16	9	9	11	4.6	-13
Cc1nc(CSc2ccc(Cl)cc2)cc(N2CC(C)OC(C)C2)n1 (configuration not stated)	4164	-4	0	3	0	0.0	-4
CCC(Sc1nc2ncnc(N)c2[nH]1)C(=O)O (configuration not stated)	4264	-4	5	3	5	3.8	-10
O=C(NC1CCSc2ccccc21)c1ccc(F)c(S(=O)(=O)N2CCOCC2)c1 (configuration not stated)	4383	13	2	12	11	0.7	1
CN(C(=O)C1CCCN(c2ncnc3c2nc2n3CCCCC2)C1)c1cccc(Cl)c1 (configuration not stated)	5366	-3	-2	-9	2	-4.3	1
CCC(c1nnnn1C1CCCCC1)N(Cc1ccco1)Cc1cc2ccc(OC)cc2[nH]c1=O (configuration not stated)	2604	-2	10	-20	/	-6.4	-20
Cc1cc(C)cc(NC(=O)c2cc(S(=O)(=O)N3CCCC3)cn2C)c1	6411	-3	-3	4	1	5.7	1
CC(C)CC(NC(=O)CCl)c1ccccc1 (configuration not stated)	2119	12	14	0	-2	4.0	-15
OCC1(CCOc2ccccc2)CCN(Cc2cn[nH]c2-c2ccc(F)cc2)CC1	4362	13	8	5	2	-2.0	-12
COc1cccc(-c2cccc(NC(=O)C3CCN(C4CCC4)CC3)c2)c1	6827	2	6	1	0	0.1	-5
O=C(c1ccc(Br)s1)N1CCc2ccccc2C1	3682	0	-5	7	-12	18	-27
O=C(O)CCc1ccc(-c2ccccc2)n1-c1ccc(C(=O)O)cc1	3786	7	-6	2	4	0.9	-16
CC1(C(=O)OCC(=O)Nc2ccc(S(=O)(=O)N3CCOCC3)cc2)CC1(Cl)Cl (configuration not stated)	2909	4	-4	2	/	1.3	-30
CC(C)(C)c1ccc(Oc2ccc(N)cn2)cc1	/	8	5	19	2	9.5	/
CC1=C(C(=O)Nc2cccc(C)n2)C(c2ccc3c(c2)OCO3)C2=C(CC(c3ccco3)CC2=O)N1 (configuration not stated)	2733	/	/	-1	-1	-3.2	-3
Cc1onc(-c2ccccc2)c1C(=O)N(Cc1ccccc1)C(C)C	3426	11	1	-2	-5	4.3	-12
O=C(c1ccco1)N(Cc1cc2ccccc2[nH]c1=O)C1CCCCC1	2869	6	9	-5	7	8.3	-21
CC(OC(=O)c1ccc(Cl)c(S(N)(=O)=O)c1)C(=O)NCc1ccc2c(c1)OCO2 (configuration not stated)	?	5	3	14	0	4.0	-7
COc1ccc(Cc2nc3c([nH]2)c(=O)n(C)c(=O)n3C)cc1OC	3989	8	8	-1	/	0.0	-14
